Compound activity (PubChem)
Sfp inh = inhibitors of Bacillus subtilis Sfp phosphopantetheinyl transferase; AID 1490; 3.5% of 310,000 active; Biochemical Sfp PPTase activity, qHTS; Potency, µM, inactives show max response, negative = inhibition, usual class: inhibitors; active means well fitted inhibition curve with a large enough effect; inconclusive means small, poorly fitted or top-dose-only effect, or another doubt; inactive means no such curve, though single readings can be large or run the other way;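 further: the enzyme is Sfp with the accession as filed and its product quenches rhodamine fluorescence; potency means the concentration at half of the fitted maximal effect; 0% = enzyme reaction without inhibitor and -100% = no enzyme wells; top concentration of the series not given in the record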
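With Hepes-Na pH 7.6 buffer containing 10 mM MgCl2, Sfp (15 nM) modified BHQ-2-YbbR (12.5 uM) using rhodamine-CoA (5 uM). Two reads 30 minutes apart at 525/598 nm yielded each well's rate.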
TRPV1 PAM = human TRPV1 potentiation. Q8NER1. TRPV1-expressing cells, Fluo-8 calcium influx, capsaicin EC20 potentiation; host cell line not named in the record; control for the full effect not named in the record. potentiation, % at 8.33 µM. 0.02% of 320,000 active. AID 540277; active means potentiation above 80%; inconclusive means 30% to 80%; inactive means below 30%; further: 0% is about no effect
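Fluo-8 calcium influx in TRPV1-expressing cells, kinetic read (ex 480/em 520 nm). Compound added and read 3 min for agonist activity, followed by capsaicin at EC20 final and 2 min further read for enhancement.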
Six1-Eya2 inh = Six1/Eya2 interaction inhibition. Q15475+O00167. AID 651725. activity change, % (test concentration not listed). AlphaScreen GST-Six1/His-Eya2 binding, biochemical; hits give low values; control for the full effect not named in the record. 0.56% of 360,000 active; in the data active = activity change below about -65%; inconclusive = about -30% to -65%; inactive = above about -30%; further: on the % scale 0 is the no-effect control and ±100 the full control effect; compound concentration not given in the record
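GST-Six1 + His-Eya2 (5X stock: 250/500 nM); Tris pH 8.0, 300 mM NaCl, 0.05% BSA, 0.02% Tween 20; GSH donor/Ni acceptor beads; 1 h 37 °C dark; AlphaScreen readout.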
CtBP-E1A inh = blocks the CtBP interaction with E1A | AlphaScreen GST-E1A/His-CtBP binding, 1536-well; hits give low values; control for the full effect not named in the record | activity change, % (concentration not given with the values) | 0.49% of 340,000 active | AID 651724; in the data active means activity change below about -65%; inconclusive means about -30% to -65%; inactive means above about -30%; further: on the % scale 0 is the no-effect control and ±100 the full control effect
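GST-E1A and His-tagged CtBP (125 nM each as 5X stock) were preincubated with pin-transferred compound for 2 h at 37 °C in the dark, then glutathione donor and nickel acceptor beads were added for 1 h before AlphaScreen reading.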
PINK1 modulator = modulators of PINK1 expression; PINK1 immunofluorescence, high-content cytometry, 24 h; Potency, µM (doses to about 76.6 µM), for inactives: top-dose activation (PINK1 increase), most hits filed as activators; 0.2% of 410,000 active; active = well fitted activation curve with a large enough effect; inconclusive = small, poorly fitted or top-dose-only effect; inactive = flat fitted curve, though single readings scatter; cell line not stated here;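 further: potency means the concentration at half of the fitted maximal effect; % of control where 0% means no effect; nearly all actives have a fitted effect of over 65% in size; a mitochondrial uncoupler was the plate control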
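Decision-based qHTS: stable cells, 24 h exposure to five compound concentrations, CCCP as control. Fixed cells stained for PINK1 plus nuclear, mitochondrial and cell markers, cytometer read.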
D2 potentiator = human D2 receptor positive allosteric modulation; P14416; DiscoveRx D2 beta-arrestin cells, luminescence, 90 min; 100% = 57 uM dopamine signal; potentiation, % (concentration not given with the values); 0.23% of 360,000 active; active = potentiation of 50% or more; inconclusive = 30% to 50%; inactive = 30% or less;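 further: compound concentration not given in the record; tested on top of an EC20 dose of dopamine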
Target sequence (P14416 whole entry, looked up): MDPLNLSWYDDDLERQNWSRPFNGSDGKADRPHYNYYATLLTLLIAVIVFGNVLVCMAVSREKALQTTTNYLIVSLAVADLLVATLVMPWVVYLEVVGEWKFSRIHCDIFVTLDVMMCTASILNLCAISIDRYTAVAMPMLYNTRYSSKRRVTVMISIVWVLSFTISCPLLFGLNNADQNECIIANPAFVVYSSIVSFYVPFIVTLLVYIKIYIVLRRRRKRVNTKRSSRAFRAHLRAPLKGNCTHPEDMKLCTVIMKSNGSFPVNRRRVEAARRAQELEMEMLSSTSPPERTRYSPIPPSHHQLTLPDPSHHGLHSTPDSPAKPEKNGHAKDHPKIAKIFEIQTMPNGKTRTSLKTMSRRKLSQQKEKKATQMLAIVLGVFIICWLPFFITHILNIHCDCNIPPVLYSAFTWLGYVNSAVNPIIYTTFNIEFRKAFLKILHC
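PathHunter beta-arrestin assay in DiscoveRx D2 cells. Compounds were added with an EC20 of dopamine (50 nM final) for 90 min at 37 deg C. Luminescence was read 1 h after detection reagent, with 57 uM dopamine as the EC100 control.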
D2 agonist = agonists of human D2 dopamine receptor (beta-arrestin). P14416. DiscoveRx PathHunter D2 beta-arrestin, luminescence, 90 min; 100% = 57 uM dopamine signal. activation, % (no concentration beside the values). 0.084% of 360,000 active. AID 624465; in the data active = activation above about 40%; inconclusive = about 15% to 40%; inactive = below about 15%; further: compound concentration not given in the record; the text of the record calls up to 30% inactive
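Agonist mode: compounds alone added to overnight-plated D2 PathHunter cells for 90 min at 37 C, with 57 uM final dopamine (EC100) defining full response. Beta-arrestin recruitment detected by chemiluminescent reagent, read after 1 h at ambient temperature.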
Active calls of the source: *; ? = inconclusive; . = not tested or not shown; & = joins results of further samples; [ ] = dose if it differs, or a comment. Outcome played no part in choosing rows; about 3.7% have a hit in one of these screens.

#	Molecule	PINK1 modulator	TRPV1 PAM	CtBP-E1A inh	Six1-Eya2 inh	D2 agonist	D2 potentiator	Sfp inh
1	Cc1ccc(OCC(O)CN2CCN(Cc3ccc4c(c3)OCO4)CC2)cc1C (stereo unspecified)	2.7%	-10	-3	-2	-0.1	-22	-5%
2	C[C@H](CO)N1C[C@H](C)[C@@H](CN(C)Cc2ccc3c(c2)OCO3)Oc2c(NC(=O)Cc3ccccc3)cccc2C1=O	-1.0%	.	-4	-9	3.9	8	.
3	Brc1cccc(OCCCCn2cncn2)c1	4.2%	-28	.	9	-4.5	-25	?
4	COc1ccccc1-c1cc(C(=O)NC2CCN(C)CC2)c2ccc(Cl)c(C)c2n1	2.0%	-13	8	-1	-2.8	-11	56µM*
5	COc1ccc(NC2c3ccccc3C(=O)N2Cc2ccccc2Cl)cc1OC (stereo unspecified)	1.2%	-13	?	-19	-0.7	-1	-7%
6	CN(Cc1nccs1)C(=O)C1CCC(=O)N(CCc2cccc(F)c2)C1 (stereo unspecified)	-1.9%	14	-23	6	-1.5	-14	7%
7	O=C(Nc1ccccc1NC(=O)c1ccco1)c1ccccc1	0.4%	17	-5	1	-1.6	-1	20%
8	O=C(O)/C=C/c1cn(-c2ccccc2)nc1-c1cccs1	-0.3%	1	-1	-3	-1.2	-6	4%
9	O=C1/C(=C/c2ccc3c(c2)OCO3)Oc2cc(OCC(=O)N3CCC[C@H]3C(=O)O)ccc21	0.8%	0	3	-7	-3.4	1	-11%
10	O=C(CCSCc1ccccc1F)NCc1cccs1	2.3%	-6	1	2	-1.6	0	14%
11	Cc1ccc(S(=O)(=O)Nc2ccc3c(c2)OCCO3)cc1	4.7%	2	7	5	-3.0	-2	23%
12	O=C1CSC(=S)N1c1cccc(Cl)c1	0.9%	13	-9	0	-9.8	-9	-4%

Single entries from the entries so far.
Value of #2 under CtBP-E1A inh: -4
Value of #3 under D2 potentiator: -25

(listing goes on)
#	Molecule	PINK1 modulator	TRPV1 PAM	CtBP-E1A inh	Six1-Eya2 inh	D2 agonist	D2 potentiator	Sfp inh
13	CCCCN(C)C1=Nc2cccc3cccc1c23	0.3%	14	3	4	-1.8	-11	2%
14	CSCCC(NC(=O)c1ccc(Cl)cc1Cl)C(=O)NCC(c1cccs1)N(C)C (stereo unspecified)	-1.9%	.	-6	0	-4.9	-1	.
15	O=C(NC12CC3CC(CC(C3)C1)C2)c1cc([N+](=O)[O-])ccc1N1CCOCC1	-0.5%	-13	-8	-2	-4.1	-6	-7%
16	COc1nc(N(CC(N)=O)S(=O)(=O)c2ccccc2)nc(C)c1Cl	-2.1%	?	-1	6	0.1	5	2%
17	Cc1c(Cl)c([N+](=O)[O-])nn1CCCC(=O)N(Cc1ccccc1)Cc1ccccc1	0.2%	?	-14	-8	-4.8	-5	-16%
18	CCN1CCN(C(=O)CCc2nnc(CCc3ccccc3OC)o2)[C@@H](C)C1=O	0.4%	0	8	5	2.0	-3	25%
19	Cc1ccc(C(=O)N2c3ccccc3NC(=O)C2C)cc1 (stereo unspecified)	1.5%	2	8	2	0.8	5	8%
20	Cc1nnc(Sc2cc(C(=O)NCc3ccco3)c3ccccc3n2)s1	-1.8%	-34	-4	-5	-1.9	-2	-20%
21	CC(=O)CN1C(=O)NC2(CCCc3ccccc32)C1=O (stereo unspecified)	-0.2%	0	7	2	7.7	-12	9%
22	CCCCN1C(=O)C(CC(=O)NCc2cccs2)CC(C(=O)N(C)C)=C1C (stereo unspecified)	1.4%	.	2	24	-0.5	4	.
23	CCOc1nc(SC(C(C)=O)C(=O)Nc2ccccc2)nc(N(C)C)n1 (stereo unspecified)	0.9%	6	4	1	-3.2	-14	-10%
24	O=S(=O)(NCC1CCCO1)c1ccccc1 (stereo unspecified)	2.2%	?	9	-8	-0.6	-4	8%
25	O=C1OC(c2ccccc2)=N/C1=C\C=C\c1ccco1	1.8%	12	-1	0	-1.9	-8	40µM*
26	CCN1C(=O)[C@@H]2[C@H](C1=O)[C@@H]1C(=O)Nc3ccccc3C(=O)N1[C@@H]2c1ccc(Br)cc1	0.5%	106*	.	4	-4.8	-9	.
27	COc1cc(-c2cc(C(=O)N(C)Cc3ccccc3)c3ccccc3n2)cc(OC)c1OC	-0.3%	-8	21	4	0.3	8	-4%
28	COC(=O)COc1ccc(S(=O)(=O)N2CCc3ccccc3C2)cc1	3.3%[38.3 µM]	9	15	1	-1.5	-3	7%
29	COc1ccccc1C(CC(=O)Nc1ccc(C)c(C)c1)c1ccc(OC(C)C)cc1 (stereo unspecified)	3.2%	?	1	3	0.5	-8	19%
30	Cc1nc2ncnn2c(Nc2ccc3c(c2)OCCO3)c1C	-3.3%[38.3 µM]	.	5	-1	-0.9	-3	.
31	COc1ccccc1N1CCN(C2CCCN(C(=O)c3ccccn3)C2)CC1 (stereo unspecified)	-1.1%	-4	1	2	1.2	-32	24%
32	Cn1c(=O)c2c(n(C)c1=O)=NC1(CCCCC1)ON=2	-0.5%	-2	-5	-10	-1.2	7	8%
33	O=C(CSc1nc(C2CC2)nc2ccccc12)N1c2ccccc2Sc2ccccc21	1.7%	2	-15	-12	-1.8	10	-18%
34	Cc1cc2ncn(C(=O)c3c(-c4c(Cl)cccc4Cl)noc3C)c2cc1C	-0.1%	10	-1	-7	-4.6	-16	13%
35	COc1cccc(NC(=O)c2ccc(N3C(=O)C4CCC(C)CC4C3=O)cc2)c1 (stereo unspecified)	4.0%	.	5	0	1.6	-11	.
36	COC(=O)C1=CN(Cc2ccc(C)cc2)C=C(C(=O)OC)C1c1cc(OC)c(OC)c(OC)c1	5.0%	-16	35	20	-2.6	-15	-8%

Values by screen from above.
D2 agonist for nos. 25 to 34 → -1.9, -4.8, 0.3, -1.5, 0.5, -0.9, 1.2, -1.2, -1.8, -4.6
CtBP-E1A inh for nos. 25 to 34 → -1, ., 21, 15, 1, 5, 1, -5, -15, -1
PINK1 modulator for nos. 25 to 34 → 1.8%, 0.5%, -0.3%, 3.3%[38.3 µM], 3.2%, -3.3%[38.3 µM], -1.1%, -0.5%, 1.7%, -0.1%

Back to the main list with the 6 entries that preceded the break.
#	Molecule	PINK1 modulator	TRPV1 PAM	CtBP-E1A inh	Six1-Eya2 inh	D2 agonist	D2 potentiator	Sfp inh
31	COc1ccccc1N1CCN(C2CCCN(C(=O)c3ccccn3)C2)CC1 (stereo unspecified)	-1.1%	-4	1	2	1.2	-32	24%
32	Cn1c(=O)c2c(n(C)c1=O)=NC1(CCCCC1)ON=2	-0.5%	-2	-5	-10	-1.2	7	8%
33	O=C(CSc1nc(C2CC2)nc2ccccc12)N1c2ccccc2Sc2ccccc21	1.7%	2	-15	-12	-1.8	10	-18%
34	Cc1cc2ncn(C(=O)c3c(-c4c(Cl)cccc4Cl)noc3C)c2cc1C	-0.1%	10	-1	-7	-4.6	-16	13%
35	COc1cccc(NC(=O)c2ccc(N3C(=O)C4CCC(C)CC4C3=O)cc2)c1 (stereo unspecified)	4.0%	.	5	0	1.6	-11	.
36	COC(=O)C1=CN(Cc2ccc(C)cc2)C=C(C(=O)OC)C1c1cc(OC)c(OC)c(OC)c1	5.0%	-16	35	20	-2.6	-15	-8%
37	COc1ccc(CCN/C=C2/CC(=O)NC2=O)cc1OC	-1.7%	14	6	-1	-2.6	0	0%
38	Cc1ccccc1-c1ncc(CN2CCN(C3CCCCC3)C(CCO)C2)cn1 (stereo unspecified)	0.2%	-8	.	4	-2.8	-9	-17%
39	O=C(CCc1ccccc1)N1CCCC1	0.8%	12	.	-2	-1.8	0	8%
40	CCN(CCC(=O)Nc1cc([N+](=O)[O-])ccc1OC)Cc1ccccc1	0.8%	-7	1	-2	-1.3	-39	9%
41	Cc1nc2ccc(NC(=O)COc3ccccc3C)cc2s1	-1.5%	-2	0	0	-1.0	-3	32µM*
42	CC(C)C[C@H](N)c1nnc(SCC(=O)Nc2ccc(Br)cc2)o1	0.1%	-3	-25	4	5.6	-24	-19%
43	CCCCCCCCCCS(=O)(=O)N/N=C/c1ccc([N+](=O)[O-])cc1	5.6%[38.3 µM]	-2	-9	-18	-4.0	-16	28%
44	Cc1ccc(C)c(NC(=O)Cc2csc(-c3ccccc3)n2)c1	10%	-5	10	8	0.3	-5	25%
45	O=C(CN1C(=O)c2ccccc2C1=O)NC1CCCCC1	1.6%	8	9	8	-0.6	10	3%
46	COCCNC(=O)c1onc(CSc2ccccn2)c1C(=O)NCCOC	0.0%	.	-19	8	-2.8	-8	.
47	COc1ccc(-n2c(=O)[nH]cc(C(=O)N3CCc4ccccc43)c2=O)cc1	-1.8%[38.3 µM]	0	1	2	-2.1	-8	19%
48	Cc1cc(OCC(=O)OCC(=O)NC2CCCCCC2)ccc1Cl	1.2%	-6	.	4	-0.2	6	.
49	Cc1ccccc1CNS(=O)(=O)c1csc(C(N)=O)c1	2.7%&0.2%	?	.	21	-4.9	3	15%
50	COc1ccccc1C(=O)Nc1nc2ccc(S(C)(=O)=O)cc2s1	27%[38.3 µM]	-2	9	2	2.3	-11	?
51	O=C(NCC1CCCCC1)C1CCC(=O)N(CCc2cccc(F)c2)C1 (stereo unspecified)	-0.9%	-6	6	2	5.1	-1	10%
52	Cc1cc(NC(=O)c2cccc(Oc3ccccc3)c2)n[nH]1	1.3%	-10	0	0	-2.4	-5	6%
53	COc1ccc(NC(=O)CS(=O)CC(=O)Nc2ccc(NC(C)=O)cc2)cc1 (stereo unspecified)	2.9%	-1	25	11	-1.0	-4	-6%
54	CCC(C)Nc1nc2c(c(=O)n(C)c(=O)n2C)n1Cc1cccc(C)c1 (stereo unspecified)	-0.7%	15	-14	-1	-1.3	10	12%
55	Cc1ccc(S(=O)(=O)N(C)CCN(C)S(=O)(=O)c2ccc(C)cc2)cc1	1.7%	.	-10	3	0.4	-3	.
56	CCOC(=O)c1[nH]c2cc(OC)c(OC)cc2c1NC(=O)C(C)N1CCN(Cc2ccccc2)CC1 (stereo unspecified)	3.5%	-7	-65*	?	-4.2	-43	-5%
57	O=C(O)c1cn(-c2ccc(F)cc2)c(=O)c2ccccc12	4.3%	3	3	3	1.0	-1	15%
58	COC1C(CO)OC(n2cnc3c(=S)nc(N)[nH]c32)C1O (stereo unspecified)	5.0%	.	-3	-7	-2.9	-14	.
59	COc1ccc(-c2cnc(N)n2CC2CCCO2)cc1 (stereo unspecified)	10%	15	-29	?	-5.4	-12	-8%
60	CC(C)C[C@@H](CNCC(=O)[C@H](CC(=O)O)NC(=O)c1[nH]cnc1C(=O)N[C@H](CN)CC(C)C)NC(=O)c1nc[nH]c1C(=O)N[C@@H](Cc1ccccc1)C(=O)O	0.7%	.	-8	-10	-2.7	-11	.
